Screening data: PubChem BioAssay, National Center for Advancing Translational Sciences (NCATS)
Cruzain noTriton: qHTS Assay for Promiscuous and Specific Inhibitors of Cruzain (without detergent); Cruzipain (Trypanosoma cruzi), P25779; purified cruzain, Z-FR-AMC fluorescence, no detergent; Potency, µM, without a hit: max response, negative = inhibition, hits mostly inhibitors; hit rate 2.3% among 200,000; AID 1476, 2009;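 further: plate controls were enzyme without inhibitor for no effect and buffer without enzyme for full effect; nearly all actives have a fitted effect of over 40% in size; top concentration of the series not given in the record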
Target sequence (P25779 123-467 limits assumed): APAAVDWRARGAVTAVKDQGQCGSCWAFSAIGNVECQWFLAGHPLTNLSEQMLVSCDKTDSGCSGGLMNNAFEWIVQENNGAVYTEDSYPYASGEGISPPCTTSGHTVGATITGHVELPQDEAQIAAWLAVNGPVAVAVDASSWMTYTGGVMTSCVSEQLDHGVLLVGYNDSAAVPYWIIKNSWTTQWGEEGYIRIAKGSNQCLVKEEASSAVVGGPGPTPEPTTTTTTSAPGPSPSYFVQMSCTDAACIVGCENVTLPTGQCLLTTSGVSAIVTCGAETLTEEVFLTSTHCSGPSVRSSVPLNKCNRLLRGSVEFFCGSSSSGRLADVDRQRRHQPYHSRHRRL
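Purified cruzain at 1.5 nM, pre-incubated 15 min with compound at room temperature in 100 mM sodium acetate pH 5.5, 5 mM DTT, 0.00005% Triton X-100. Reaction started with 2 uM Z-FR-AMC; AMC fluorescence increase over 60 s gives rate.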
StopGo reporter: High Throughput Screening for Foot and Mouth Disease Virus Antivirals. AID 1159524, 2015. human cells with a luciferase reporter of 2A StopGo recoding; control for the full effect not named in the record. Potency, µM (top dose mostly 57.9 µM), for the others: at the top dose signal change, negative = less light. hit rate 1.2% among 410,000; active = well fitted falling curve with a large enough effect; inconclusive = small, poorly fitted or top-dose-only effect; inactive = no such curve, though single readings can be large or run the other way; tested in HEK293T cells; further: on the % scale 0 is the no-effect control and ±100 the full control effect; nearly all actives have a fitted effect of over 45% in size; luciferase light after 4 h
SARS PLP yeast: qHTS of Yeast-based Assay for SARS-CoV PLP; S. cerevisiae expressing SARS-CoV PLpro, growth rescue; control for the full effect not named in the record; Potency, µM (doses to about 32.9 µM), for the others: top-dose activity, positive = growth rescue; hit rate 0.19% among 330,000; AID 485353, 2010; active means well fitted rising curve with a large enough effect; inconclusive means small, poorly fitted or top-dose-only effect; inactive means no such curve, though single readings can be large or run the other way; further: 0% is about no effect; nearly all actives have a fitted effect of over 55% in size; growth read by luminescence after 48 h
MARV entry inh: qHTS for inhibitors of binding or entry into cells for Marburg Virus; Marburg virus pseudotyped entry inhibition, cell reporter; control for the full effect not named in the record; about a third of the inactives were read at about 46 µM; Potency, µM (doses to about 37.8 µM), without a hit: at the highest dose activity change, negative = inhibition, most hits filed as inhibitors; hit rate 1.8% among 300,000; AID 540276, 2011; active = well fitted inhibition curve with a large enough effect; inconclusive = small, poorly fitted or top-dose-only effect, or effect the other way; inactive = flat fitted curve, though single readings scatter; tested in HEK293 cells; about a fifth of its hits are not listed in these tables; further: on the % scale 0 is the no-effect control and ±100 the full control effect; luciferase read-out
NS1 function inh: qHTS Assay for Inhibitors of Influenza NS1 Protein Function | hit rate 0.4% among 270,000 | Potency, µM (titrated, usually from 46.1 µM), inactives show top-dose activity, positive = more growth | AID 2326, 2010 | S. cerevisiae slowed by influenza A NS1, growth recovery by OD600; active means well fitted rising curve with a large enough effect; inconclusive means small, poorly fitted or top-dose-only effect; inactive means no such curve, though single readings can be large or run the other way; further: nearly all actives have a fitted effect of over 50% in size
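OD600 was taken as the measure of yeast growth restored by compound in an NS1-expressing S. cerevisiae strain. Cells had been washed out of glucose medium and diluted 1:100 into galactose -URA medium, pH 6.0.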
Lassa entry inh: qHTS for Inhibitors of binding or entry into cells for Lassa Virus | Lassa virus pseudotype entry inhibition, cell reporter; control for the full effect not named in the record | Potency, µM (top dose mostly 37.9 µM), for the others: at the top dose activity change, negative = inhibition, usual class: inhibitors | hit rate 1.2% among 300,000; active means well fitted inhibition curve with a large enough effect; inconclusive means small, poorly fitted or top-dose-only effect, or effect the other way; inactive means flat fitted curve, though single readings scatter; tested in HEK293 cells; further: on the % scale 0 is the no-effect control and ±100 the full control effect; nearly all actives have a fitted effect of over 50% in size; luciferase read-out
Cruzain inh Det: qHTS Assay for Promiscuous and Specific Inhibitors of Cruzain (with detergent); Cruzipain (Trypanosoma cruzi), P25779; purified cruzain, Z-FR-AMC fluorescence, 0.01% Triton; Potency, µM, for the others: max response, negative = inhibition, most hits filed as inhibitors; hit rate 0.43% among 200,000; AID 1478, 2009;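 further: plate controls were neutral wells for no effect and buffer without enzyme for full effect; nearly all actives have a fitted effect of over 40% in size; top concentration of the series not given in the record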
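Compounds were screened in titration against cruzain (1.5 nM) with 0.01% Triton X-100 to counter colloidal aggregation. Activity was the AMC fluorescence increase over 60 s after adding 2 uM Z-FR-AMC at pH 5.5.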
RE007 growth inh: qHTS Assay for Inhibitors of the HIV-1 protein Vpr; hit rate 0.21% among 360,000; S. pombe RE007 Vpr strain, BacTiter-Glo ATP luminescence, 24 h; control for the full effect not named in the record; Potency, µM (series often up to 92.2 µM), inactives show top-dose activity change, negative = less growth; AID 651644, 2012; active = well fitted falling curve with a large enough effect; inconclusive = small, poorly fitted or top-dose-only effect; inactive = no such curve, though single readings can be large or run the other way;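 further: on the % scale 0 is the no-effect control and ±100 the full control effect; nearly all actives have a fitted effect of over 50% in size; the assay follows cell death caused by Vpr and the record does not say whether a fall means rescue or toxicity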
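Fission yeast RE007 carrying one integrated HIV-1 vpr copy, seeded at OD 0.01 in PMG+AL medium with 23 nL pinned compound. Grown 24 h at 30 degrees; viability read by BacTiter-Glo luminescence after 5 min.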
The depositor's hits bear a star; ? = inconclusive; . = not tested or not shown; & = joins results of further samples; [ ] = remark or other dose. Unless noted, the call rests on the fitted dose curve; in most records, active means well fitted curve in the direction sought with a large enough effect; inconclusive means small, poorly fitted or top-dose-only effect, or another doubt; inactive means no such curve, though single readings can be large; an effect the other way counts as inactive or inconclusive. Potency means the concentration at half of the fitted maximal effect. Rows were taken by chance (roughly 4.8% active in at least one column).

SMILES	Cruzain noTriton	StopGo reporter	SARS PLP yeast	MARV entry inh	NS1 function inh	Lassa entry inh	Cruzain inh Det	RE007 growth inh
Cc1c(C(=O)NC2CCCCC2)oc2c1C(=O)CC(C)(C)C2	12%	14%	2%	-1%	-5%	-6%	2.9%	13%
Cc1cccc2c(=O)n3c(cc12)-c1[nH]c2ccccc2c1CC3	.	-17%	.	-21%	.	-21%	.	0%
CN(C)c1ccc(NC(=O)CSc2n[nH]c(-c3ccco3)n2)cc1	.	5%	1%	0%	-4%	?	.	-18%
COc1ccc(-c2nc3c(c(SCC(=O)Nc4cccc(O)c4)n2)Cc2c(CO)cnc(C)c2O3)cc1	20%	-17%&-14%	-9%	.	16%	?	-11%	15%
Cc1cc(C)n(CCC(=O)N/N=C/c2ccccc2O)n1	6%	-7%	16%	-18%	1%	?	-3.8%	6%
CN1CCN(C(=O)c2cccn(Cc3c(Cl)cccc3Cl)c2=O)CC1	.	0%	2%	?	2%	20%	.	0%
Cc1cccn2c(=O)c3cc(C(=O)Nc4ccc(Cl)c(Cl)c4)sc3nc12	-6%	-23%	.	?	.	2%[46.1 µM]	-3.1%	.
CC(=O)CSc1nc2ccccc2o1	-12%	19%	-19%	?	10%	3%	-0.6%	-2%
O=Cc1c(N2CCN(c3cccc(Cl)c3)CC2)nc2ccccn2c1=O	1%	?	2%	?	-16%	?	-1.3%	16%
Clc1ccc(-n2cc(COCc3ccccc3)nn2)cc1	.	-13%	-3%	?	.	?	.	-1%
Cc1cccc(C(=O)NCC(=O)NNC(=O)c2ccccc2O)c1	.	-5%	2%	-8%[46.1 µM]	.	17%	.	3%
COC(=O)c1c(NC(=O)Cn2nc(C(F)F)cc2C(F)F)sc(C)c1C	0%	-16%	0%	?	-12%	7%	-6.3%	1%
CSC(=NS(=O)(=O)c1ccc(C)cc1)SC	-2%	32%[activator]	3%	0%	0%	-2%	-0.9%	5%
Cc1cccc(CSCc2ccc(C(=O)NC(C)C)o2)c1	.	?	-1%	.	-9%	.	.	13%
CNC(=S)N/N=C/c1cn(CCOc2cccc(OC)c2)c2ccccc12	25µM*	-5%	-4%	?	23%	?	-27%	0%
CCOCCCNC(=O)C(c1ccc(OC)cc1)N(Cc1cccs1)C(=O)CNC(C)=O (stereo not drawn)	3%	8%&-2%	2%	?	.	2%[46.1 µM]	0.8%	12%
Cc1cc(C(C)(C)C)cc(C)c1N	3%	-2%	-12%	?	0%	4%	-2.9%	2%
O=C(O)c1ncc(-c2ccccc2)cn1	6%	11%	-3%	-10%	-4%	23%[14.3 µM]	3.5%	4%
CC1CCc2cc(F)cc3c(O)c(C(=O)NCC4CCCO4)c(=O)n1c23 (stereo not drawn)	?	0%	?	-22%[46.1 µM]	-3%	13%	-7.0%	-29%
COc1ccc(N2CCN(C(=S)Nc3cc(C)cc(C)c3)CC2)cc1	-23%	12%	2%	-4%	11%	-9%	2.1%	2%
COC(=O)C(NC(=O)c1ccc(F)cc1)(Nc1ncc(S(=O)(=O)c2ccc([N+](=O)[O-])cc2)s1)C(F)(F)F (stereo not drawn)	10%	13µM*	-1%	?	7.9µM*	?	0.1%	1%
CN(C)S(=O)(=O)c1cccc(NC(=O)C2Cc3ccccc3CN2C(=O)c2ccccc2)c1 (stereo not drawn)	.	50%[activator]	4%	7%[46.1 µM]	11%	-29%	.	-11%
CCOC(=O)c1nc(Nc2ccccc2CC)c2ccccc2n1	.	-27%	-1%	?	-6%	4%	.	33%
O=C(Nc1ccc2c(c1)CN(Cc1ccc(CO)o1)CC2)c1ccc(C(F)(F)F)cc1	.	0%	2%	?	6%	?	.	-8%
O=C1CSC(c2cccc([N+](=O)[O-])c2)N1c1ccccc1 (stereo not drawn)	.	-14%	4%	-23%&-23%[14.2 µM]	.	24%	.	3%
Cn1c(SCC(=O)NC2CCCCCC2)nnc1-c1cccs1	-3%	-15%	2%	1%	-19%	-11%	-1.3%	10%
Nc1nc(-c2ccccc2)nn1C(=O)Cc1ccccc1	6%	?	2%	16%	-12%	19%	-2.3%	3%
Cc1ccc(C(=O)n2cc(CCN3CCS(=O)(=O)CC3)c3ccccc32)cc1	?	?	-8%	3%	-33%	?	-7.8%	10%
CC(=O)c1ccc(NC(=O)c2nc3nc(C)cc(C(F)F)n3n2)cc1	5%	19%	.	-8%[46.1 µM]	.	23%[46.1 µM]	-1.7%	.
CC(=O)c1cc2cc(O)ccc2o1	?	7%	-3%	18%	-7%	7%	-7.5%	7%
Cc1cc(-c2ccc(C(C)C)c(S(=O)(=O)N3CCN(c4ccccc4)CC3)c2)on1	.	16%	1%	?	16%	?	.	-11%
CNC(=O)N(O)C1N(/N=C/c2cccnc2)C(=S)SC1(C)C (stereo not drawn)	.	-15%	0%	-10%[46.1 µM]	4%	11%[46.1 µM]	.	-1%
O=S(=O)(NC1CCCCCC1)c1cccc2cccnc12	1%	43%[activator]	1%	12%	-5%	?	-4.0%	12%
O=C1CC(=O)Nc2cc(S(=O)(=O)NCc3cccs3)ccc2N1	.	-2%	-6%	-4%[46.1 µM]	9%	?	.	-11%
O=C(CCC1CCCCC1)Nc1cccnc1	3%	10%	-10%	0%	-46%	-1%	-1.2%	?
CCOc1ccc(NC(=O)CCCNC(=O)Cn2cnc3sc(C)c(C)c3c2=O)cc1	.	20%	0%	-8%[46.1 µM]	7%	?	.	0%
CS(=O)(=O)c1cnc2c(-c3ccsc3)cnn2c1N	.	60%[activator]	1%	?	1%	21%	.	19%
NC(=S)N/N=C1\CCSc2ccc(Cl)cc21	.	4%	2%	-19%[46.1 µM]	6%	-1%	.	-9%
CC(C)(C)C(=O)NC(Nc1cccc2cccnc12)C(Cl)(Cl)Cl (stereo not drawn)	-13%	?	-41%	?	-97%	?	0.2%	-9%
CCCN(CCC)CCNC(=O)Cn1cnc2sc(C)c(S(=O)(=O)N3CCN(c4ccccc4OC)CC3)c2c1=O	0%	0%	.	3%[46.1 µM]	.	24%[46.1 µM]	0.1%	.
Cc1ccc(/C=C/c2onc(C)c2S(=O)(=O)N2CCC(C(=O)Nc3ccc(Br)c(C)c3)CC2)cc1	-9%	-16%	.	.	.	8%[46.1 µM]	-0.8%	.
CCCc1cc(=O)[nH]c(SCC(=O)Nc2ccc(Br)cc2Br)n1	.	-5%	2%	-2%[46.1 µM]	.	-2%	.	-1%
CCCc1cc(=O)n2[nH]c(-c3cccc(Br)c3)cc2n1	.	67%[activator]	?	-5%	-2%	?	.	6%
COc1ccc(CN(C(=O)c2snc(C(N)=O)c2N)C(C(=O)NC(C)(C)C)c2ccco2)cc1 (stereo not drawn)	18%	1%	-4%	0%&-24%	-7%	2%	-2.2%	1%
Cn1c(=O)n(CC(=O)O)c(=O)c2c1nc1n2CCCN1c1ccc(Cl)cc1	-1%	0%	.	4%[46.1 µM]	.	6%[46.1 µM]	0.2%	.
CC(C)Cn1nc(NC(=O)C(C)(C)C)c2cc3ccccc3nc21	9%	-15%	-8%	0%	-6%	?	-5.1%	-4%
O=C(CSc1nc2ccccc2c(=O)n1-c1ccccc1)c1cccc([N+](=O)[O-])c1	.	-18%	.	-8%[46.1 µM]	.	?	.	14%
COc1ccccc1C(=O)NCCNC(=O)c1ccc(C)nc1	.	-7%	-1%	8%[46.1 µM]	4%	6%[46.1 µM]	.	-5%
C=CCn1c(-c2cccn(Cc3cccc(Cl)c3)c2=O)n[nH]c1=S	-1%	-2%	-7%	0%	11%	-11%	2.0%	9%
CC1CCCCN1Cc1nc2c(c(=O)n(C)c(=O)n2C)n1CCCc1ccccc1 (stereo not drawn)	.	?	.	?	?	-16%	.	17%
Cc1ccc(-c2nnc3ccccc3c2C(=O)Nc2cccc(C(F)(F)F)c2)cc1	?	47%[activator]	.	.	.	9%[46.1 µM]	6.0%	.
O=C(Nc1cccnc1)Nc1ccc(Br)cc1Cl	-3%	4%	-9%	20%	-31%	18%	-0.2%	-4%
COC(=O)c1ccccc1NC(=O)Nc1nnc(N2CCCCC2C)s1 (stereo not drawn)	7%	14%	12%	-7%	?	-14%	0.0%	-1%
COc1ccc(-n2c(SCC(=O)Nc3cc(C(=O)O)ccc3C)nc3ccccc3c2=O)cc1Cl	.	-10%	0%	.	20%	.	.	-9%
CC1C(c2ccccc2)=[N+]([O-])C2(CCCC2)N1O (stereo not drawn)	-6%	-2%	5%	-7%	1%	1%	5.3%	-4%
CCOC(=O)c1cc(-c2ccccc2)n(CC(=O)N2CCCC2)c1C	?	14%	-8%	5%	-8%	3%	2.0%	2%
CSc1ccc(CN(C)CC(=O)NCc2ccc(F)cc2)cc1	.	-22%	2%	-6%[46.1 µM]	-1%	.	.	-6%
CCOC(=O)c1cccc(NC(=O)c2cc(S(=O)(=O)N3CCCCCC3)cn2C)c1	1%	0%	.	.	.	6%[46.1 µM]	-9.5%	.
C=C1C(=O)O[C@@H]2[C@H]1CC[C@H](C)[C@]1(O)CCC(=O)[C@@]21C	.	-21%	1%	.	5%	.	.	-16%
Cc1ccc2c(c1)C1CN(C)CCC1N2C(=O)c1ccco1 (stereo not drawn)	0%	.	15%	-9%	?	9%	2.9%	-27%

(further entries)
SMILES	Cruzain noTriton	StopGo reporter	SARS PLP yeast	MARV entry inh	NS1 function inh	Lassa entry inh	Cruzain inh Det	RE007 growth inh
COCc1cc(C)nc2sc3c(=O)n(-c4cccc5ccccc45)nnc3c12	12%	-15%	2%	14%	5%	24%	-4.4%	4%
COc1cccc(C2CCCCN2Cc2nc(-c3ccc(C)o3)oc2C)c1 (stereo not drawn)	.	-13%	-1%	?	-1%	-16%	.	-18%
CC(C)(C)N(Cc1ccccc1)C(=O)COC(=O)C1CC1	.	-11%	-2%	?	.	-6%	.	12%
Cc1ccc(-n2cc(CCCCCCCCC(=O)O)nn2)cc1	.	-2%	-9%	.	-14%	.	.	-16%
